Screening data: PubChem BioAssay, several laboratories
Beta cell apopt: beta cell apoptosis inhibition. INS-1E cytokine-induced death, ATP luminescence, 48 h; percent of positive-control rescue, neutral wells zero. protection from apoptosis, % (test concentration not listed). 0.8% of 300,000 active;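 active means all replicates at 75% or more, or half of them and the mean; inconclusive means half reach 75% but not the mean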;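 further: 0% = cytokine-treated negative control wells and 100% = positive control rescue; higher means more ATP so stronger rescue from cytokine killing; wells of about 40 µL received 100 nL stock; the first replicate is given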
rRNA inh HTS: selective bacterial rRNA inhibition in E. coli; 1.6% of 350,000 active; E. coli WT GFP vs humanized-ribosome RFP mutants, fluorescence, 24 h; active compounds read low; DMSO median 0, no signal -100; GFP signal change (wild-type ribosome), % (no concentration beside the values);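 active means significant combined selectivity score with lowered wild-type GFP, culture density cut under 30%, mutant RFP and density less affected; inactive means any of these conditions unmet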; further: one replicate is shown; some compounds called inactive have numbers as strong as hits
Vif A3G: inhibitors of Vif binding to APOBEC3G peptide, primary screen, biochemical, TR-FRET, GST-Vif 1-94, biotin-A3G peptide, dose response retest (AID 1117319). TR-FRET GST-Vif / biotin-A3G peptide binding; higher % means a stronger effect; test concentration not given here; strong numbers were not always called active. one-dose inhibition, %; IC50 in µM for titrated hits. 0.57% of 260,000 active;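 active means above the screen mean plus three standard deviations and confirmed in dose response; inconclusive means results disagree or hit not tested in dose response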;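 further: Vif residues 1-94 fused to GST binding biotinylated APOBEC3G peptide 110-148; 0% = full assay without inhibitor and 100% = GST in place of GST-Vif; retest series ran down from 100 µM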
AF4-AF9 inh: inhibitors of human MLL-AF4/AF9 interaction. P42568. AlphaScreen, biotin-AF4 peptide binding to FLAG-AF9. inhibition, % at 10 µM. 0.47% of 350,000 active;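 active means every replicate reaching a set inhibition limit, whatever the replicate mean, cut at about 25% in these data; inconclusive means mean inhibition reaches that limit but some replicates miss it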;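 further: 0% = plate neutral control median and 100% = total signal loss; the record names both 10 and 1 µM as test concentration; the first replicate is given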
Target sequence (P42568 whole entry, looked up): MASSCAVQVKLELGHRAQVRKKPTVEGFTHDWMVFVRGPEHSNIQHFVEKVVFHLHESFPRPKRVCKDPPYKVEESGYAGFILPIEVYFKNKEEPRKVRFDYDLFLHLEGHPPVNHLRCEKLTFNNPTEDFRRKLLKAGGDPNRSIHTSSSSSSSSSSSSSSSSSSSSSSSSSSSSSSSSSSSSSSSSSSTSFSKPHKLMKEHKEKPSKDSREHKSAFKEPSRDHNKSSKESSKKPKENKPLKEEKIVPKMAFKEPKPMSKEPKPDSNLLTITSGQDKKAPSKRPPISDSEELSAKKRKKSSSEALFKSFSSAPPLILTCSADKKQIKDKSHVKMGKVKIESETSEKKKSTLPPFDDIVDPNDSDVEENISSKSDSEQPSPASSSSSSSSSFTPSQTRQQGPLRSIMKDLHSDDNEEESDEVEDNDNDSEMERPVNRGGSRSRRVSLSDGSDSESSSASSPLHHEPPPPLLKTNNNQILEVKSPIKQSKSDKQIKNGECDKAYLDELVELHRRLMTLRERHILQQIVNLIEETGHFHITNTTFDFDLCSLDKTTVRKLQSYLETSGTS
RanGTP-Impb inh: disruptors of Ran-importin-beta complex formation – biochemical, FRET, CFP-Ran, YFP-importin-beta, homogeneous, primary screen | 1.1% of 300,000 active | inhibition, % (test concentration not listed) | cell-free CFP-Ran/YFP-importin-beta FRET ratio;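 active means most replicates above 15%; inconclusive means exactly half above 15%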;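 further: 0% = DMSO wells and 100% = Ran loaded with GDP instead of GTP; wells of about 40 µL received 100 nL stock; the first replicate is given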
T cruzi inh: T. cruzi replication inhibition. T. cruzi beta-gal in NIH3T3, luminescence, 90 h. inhibition, % (test concentration not listed). 1.4% of 300,000 active;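 active means mean inhibition across valid replicates above about 55%, limit read from the data; inconclusive means mean below that limit but half or more replicates reach it; inactive means mean below it, under half of replicates reach it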;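 further: signal also drops with host cell toxicity which is not excluded here; 0% = plate median of DMSO wells and 100% = zero luminescence signal; higher percent means less beta-gal luminescence so fewer parasites; stock transfer was 50 nL into about 50 µL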
Calb FLC: affects C. albicans growth with fluconazole | C. albicans CaCi-2 (fluconazole-resistant clinical isolate) + fluconazole, Alamar Blue growth, 48 h | growth inhibition, % (test concentration not listed) | 0.57% of 300,000 active;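 active means most replicates above 75%; inconclusive means exactly half above 75%; inactive means most below 75%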;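 further: all wells also contain fluconazole at 8 µg/ml as a sub-toxic cotreatment; 0% = median of DMSO wells and 100% = median of geldanamycin control wells; wells of about 8 µL received 7.5 nL stock; the first replicate is given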
A1 inh: inhibitors of the anti-apoptotic protein A1, read as caspase activation | 0.066% of 330,000 active | MEF A1-2A-BIM cells, Caspase-Glo 3/7 luminescence, 3 h; percent of clofoctol response, vehicle zero | AID 2462 | caspase activation, % (no concentration beside the values);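 active means over half of replicate activation scores above 10%, or exactly half above 10 with the replicate mean above 10; inconclusive means replicate mean below 10 yet half the replicates above 10; inactive means over half of replicates below 10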;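 further: wells of about 30 µL received 50 nL stock; many hits fall short of the cut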
rRNA inh HTS OD600: recorded beside rRNA inh HTS, whose call it bears; OD600 change, %; measured here: OD600 growth;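 optical density of the mix in the first replicate; 0 = DMSO median and -100 = no signal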
rRNA inh HTS RFP: also measured in rRNA inh HTS; calls as there; RFP signal change, %; measured here: RFP humanized mutant strains;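 first replicate; 0 = DMSO median and -100 = no signal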
* = called active by the depositor; & = joins results of further samples. Some of the compounds tested; count on the stated rates, not on these rows.

What do the screens show for `COC(=O)C1=C(C)N(Cc2ccco2)C(=O)/C1=C\c1ccc([N+](=O)[O-])cc1`?
Beta cell apopt: 0.5; rRNA inh HTS: 8.5; Vif A3G: -12.1%; AF4-AF9 inh: 5.0; RanGTP-Impb inh: 3.5; T cruzi inh: -9.5; Calb FLC: -3.8; A1 inh: 0.5; rRNA inh HTS OD600: 8.1; rRNA inh HTS RFP: -1.0

What do the screens show for `O=C(CCc1ccccc1)NN1C(=O)C2C3C=CC(C3)C2C1=O` (stereo unspecified)?
Beta cell apopt: -2.4; rRNA inh HTS: 7.5; AF4-AF9 inh: -0.1; RanGTP-Impb inh: -0.1; T cruzi inh: -1.8; Calb FLC: -5.3; A1 inh: 1.0; rRNA inh HTS OD600: 4.7; rRNA inh HTS RFP: -2.0

Results for O=C(CCC1CCCC1)Nc1ccon1 ?
Beta cell apopt: -2.5; Vif A3G: 12.0%; RanGTP-Impb inh: 4.6; T cruzi inh: -3.6; Calb FLC: -2.3; A1 inh: -1.5

How did CS(=O)(=O)N1CCC(C(=O)NNC(=O)Nc2ccc(F)c(Cl)c2)CC1 do in these assays?
Beta cell apopt: -3.5; rRNA inh HTS: 8.6; Vif A3G: 0.0%; AF4-AF9 inh: -2.9; RanGTP-Impb inh: 0.5; T cruzi inh: -20.7; Calb FLC: -6.0; A1 inh: 0.7; rRNA inh HTS OD600: 14.3; rRNA inh HTS RFP: -0.7

What do the screens show for `Cc1ccc(C(=O)Nc2ccc(NC(=O)c3ccco3)c(C)c2)cc1`?
Beta cell apopt: -2.8; rRNA inh HTS: -4.7; AF4-AF9 inh: 1.3; RanGTP-Impb inh: 2.9; T cruzi inh: -12.4; Calb FLC: 5.2; A1 inh: -0.3; rRNA inh HTS OD600: 2.0; rRNA inh HTS RFP: -4.3

Results for O=C(O)/C(=C\c1cccs1)c1ccccc1 ?
Beta cell apopt: -1.8; rRNA inh HTS: 1.7; AF4-AF9 inh: -2.2; RanGTP-Impb inh: -4.9; T cruzi inh: -6.2; Calb FLC: 17.9; A1 inh: 0.5; rRNA inh HTS OD600: -1.7; rRNA inh HTS RFP: -0.1

How did O=C(Nc1ccc(C(=O)O)cc1)/C(=C\C=C\c1ccccc1)NC(=O)c1ccc(Br)cc1 do in these assays?
Beta cell apopt: -0.8; rRNA inh HTS: -40.5; AF4-AF9 inh: 2.8; RanGTP-Impb inh: 6.3; T cruzi inh: 4.8; Calb FLC: inconclusive; A1 inh: -0.3; rRNA inh HTS OD600: -61.6; rRNA inh HTS RFP: -5.8

How did COc1ccc(-c2nn(CCC(=O)O)cc2/C=C2\SC(N)=NC2=O)cc1 do in these assays?
Beta cell apopt: -8.5; Vif A3G: -15.1%; AF4-AF9 inh: -0.8; RanGTP-Impb inh: -1.0; T cruzi inh: -20.2; Calb FLC: -2.8; A1 inh: 0.8

What do the screens show for `COc1ccc(C2C(C(=O)Nc3cccc(OC)c3)c3ccccc3C(=O)N2C)cc1` (stereo unspecified)?
Beta cell apopt: 1.3; rRNA inh HTS: 6.5; Vif A3G: 8.8%; AF4-AF9 inh: 2.0; RanGTP-Impb inh: -6.0; T cruzi inh: -2.8; Calb FLC: 1.4; A1 inh: 2.0; rRNA inh HTS OD600: -1.9; rRNA inh HTS RFP: -0.6

How did O=C1CC(N2CCN(Cc3ccc4c(c3)OCO4)CC2)C(=O)N1CCc1ccccc1 (stereo unspecified) do in these assays?
Beta cell apopt: 3.7; Vif A3G: -0.6%; RanGTP-Impb inh: 1.0; T cruzi inh: 17.0; Calb FLC: -21.6; A1 inh: 0.4

What do the screens show for `NC(=O)CSc1nnc2n(-c3ccccc3)c(=O)c3c4c(sc3n12)CCCCC4`?
Beta cell apopt: 2.5; Vif A3G: 21.8%; RanGTP-Impb inh: -0.5; T cruzi inh: 9.2; Calb FLC: -0.3; A1 inh: -0.7

Results for CSc1ccc(/C=N/N2CCN(Cc3ccccc3Cl)CC2)cc1 ?
rRNA inh HTS: -9.4; Vif A3G: 7.3%; AF4-AF9 inh: 9.0; RanGTP-Impb inh: -2.8; T cruzi inh: 17.2; Calb FLC: -15.3; A1 inh: 0.4; rRNA inh HTS OD600: -5.1; rRNA inh HTS RFP: 0.4

How did O=C1c2ccccc2C2NC(=O)C3(CCCCC3)N12 (stereo unspecified) do in these assays?
Vif A3G: 13.4%; RanGTP-Impb inh: -3.0; T cruzi inh: -20.4; Calb FLC: -0.1; A1 inh: -0.2

How did NC(=O)CSc1nnc(Cc2cccs2)n1C1CCCCC1 do in these assays?
Beta cell apopt: -1.9; Vif A3G: 3.6%; T cruzi inh: 0.0; Calb FLC: -4.0; A1 inh: 1.7

What do the screens show for `Cc1nn(C(=O)CCC(=O)NCc2cccc(F)c2)c2ccccc12`?
Beta cell apopt: -2.3; rRNA inh HTS: 14.9; Vif A3G: 2.8%; AF4-AF9 inh: 0.8; RanGTP-Impb inh: -0.7; T cruzi inh: 3.2; Calb FLC: -2.9; A1 inh: 0.0; rRNA inh HTS OD600: 17.1; rRNA inh HTS RFP: 0.6

What do the screens show for `COc1ccc(CCNC(=O)c2cc3c(=O)n4cccc(C)c4nc3s2)cc1OC`?
Beta cell apopt: -3.9; rRNA inh HTS: 6.2; AF4-AF9 inh: 0.0; RanGTP-Impb inh: -0.8; T cruzi inh: 16.1; Calb FLC: -17.0; A1 inh: -0.2; rRNA inh HTS OD600: 6.9; rRNA inh HTS RFP: -0.3

Results for CC(=O)O[C@H]1C2OC(=O)C(C)=C2[C@@H]2OC(=O)[C@]3(CCC4OC41C)OC23 (stereo partly specified) ?
Beta cell apopt: -13.6; Vif A3G: 2.6%; RanGTP-Impb inh: 1.7; T cruzi inh: -23.7; Calb FLC: -4.9; A1 inh: -1.6

Results for Cc1ccsc1C(=O)OCC(=O)NCC1CCCO1 (stereo unspecified) ?
Beta cell apopt: -4.8; Vif A3G: -0.9%; RanGTP-Impb inh: -0.3; T cruzi inh: -3.0; Calb FLC: 0.1; A1 inh: 0.1

What do the screens show for `O=C(Nc1cccc(C(=O)Nc2ccc(Cl)cn2)c1)c1ccccc1`?
Beta cell apopt: 5.0; rRNA inh HTS: -5.5; AF4-AF9 inh: -1.6; RanGTP-Impb inh: 1.4; T cruzi inh: -3.9; Calb FLC: 58.8; A1 inh: 1.2; rRNA inh HTS OD600: -0.6; rRNA inh HTS RFP: -3.8

Results for Clc1cccc(Cl)c1Cn1cnc2c(N3CCCCCC3)ncnc21 ?
Beta cell apopt: 19.9; Vif A3G: -1.6%; RanGTP-Impb inh: -0.1; T cruzi inh: 10.4; Calb FLC: 16.7; A1 inh: 0.5

Results for CSC1=NC(C)(C)C=C(/C=C/c2ccc(Cl)cc2Cl)N1 ?
Beta cell apopt: -6.1; rRNA inh HTS: 2.7; Vif A3G: 6.6%; AF4-AF9 inh: 16.3; RanGTP-Impb inh: 0.5; T cruzi inh: -0.2; Calb FLC: 16.3; A1 inh: -0.9; rRNA inh HTS OD600: -1.5; rRNA inh HTS RFP: 5.4

Results for Cc1ccc([C@@H]2[C@@H]3C(=O)N(c4ccccc4)C(=O)[C@@H]3[C@]3(Cc4ccccc4)C(=O)N(CC4CC4)CC(=O)N23)o1 ?
Beta cell apopt: -1.3; rRNA inh HTS: 8.5; AF4-AF9 inh: -3.2; RanGTP-Impb inh: -0.8; T cruzi inh: -3.6; Calb FLC: -9.5; A1 inh: 0.5; rRNA inh HTS OD600: 12.4; rRNA inh HTS RFP: -12.5

What do the screens show for `CCOc1cc(CNCCCN2CCOCC2)ccc1OCC(=O)Nc1cccc2ccccc12`?
Beta cell apopt: 16.6; Vif A3G: 0.0%&-3.1%; RanGTP-Impb inh: 0.1; T cruzi inh: 45.3; Calb FLC: -44.9; A1 inh: -0.1

What do the screens show for `CCCCC(=O)NC(c1ccc(OC)c(OC)c1)c1c(O)ccc2ccccc12` (stereo unspecified)?
Beta cell apopt: -7.6; rRNA inh HTS: -22.9; Vif A3G: 4.1%; AF4-AF9 inh: 10.7; RanGTP-Impb inh: -6.3; T cruzi inh: 26.1; Calb FLC: 15.9; A1 inh: 0.9; rRNA inh HTS OD600: -26.1; rRNA inh HTS RFP: -4.9

What do the screens show for `O=C(NCc1ccco1)c1ccccc1NS(=O)(=O)c1cccs1`?
Beta cell apopt: 2.6; Vif A3G: 5.8%; RanGTP-Impb inh: 5.6; Calb FLC: 55.6; A1 inh: 0.2

How did CC(C)NC(=O)C1COc2ccccc2O1 (stereo unspecified) do in these assays?
Beta cell apopt: 0.0; rRNA inh HTS: 22.2; AF4-AF9 inh: -1.8; RanGTP-Impb inh: -3.9; T cruzi inh: -21.1; Calb FLC: -10.1; A1 inh: 0.3; rRNA inh HTS OD600: 13.9; rRNA inh HTS RFP: -1.7

How did CCN(CC)S(=O)(=O)c1ccc2c(c1)nc(-c1ccccn1)n2C do in these assays?
Beta cell apopt: -2.7; rRNA inh HTS: -2.1; AF4-AF9 inh: 0.2; RanGTP-Impb inh: 1.8; T cruzi inh: 4.8; Calb FLC: -1.1; A1 inh: -1.0; rRNA inh HTS OD600: -5.7; rRNA inh HTS RFP: -0.6

What do the screens show for `Cc1nc2ccc(S(=O)(=O)N(C)CC(=O)NC(C)c3ccccc3)cc2s1` (stereo unspecified)?
Beta cell apopt: -5.5; rRNA inh HTS: 0.1; AF4-AF9 inh: -1.7; RanGTP-Impb inh: -1.9; T cruzi inh: 18.8; Calb FLC: 6.7; A1 inh: 0.6; rRNA inh HTS OD600: -0.7; rRNA inh HTS RFP: 1.4

How did Cc1cc(C)c(C(=O)/C=C/c2ccc(C(C)C)cc2)c(=O)[nH]1 do in these assays?
Beta cell apopt: -31.1; rRNA inh HTS: -14.0; Vif A3G: 1.7%; AF4-AF9 inh: -0.9; RanGTP-Impb inh: inconclusive; T cruzi inh: 16.1; Calb FLC: 0.1; A1 inh: -0.1; rRNA inh HTS OD600: 2.8; rRNA inh HTS RFP: -4.0

How did CN(C)S(=O)(=O)c1ccc(C(=O)NCCSc2ccc(Br)cc2)cc1 do in these assays?
Beta cell apopt: 0.6; rRNA inh HTS: -16.1; AF4-AF9 inh: -5.1; RanGTP-Impb inh: -3.0; T cruzi inh: 17.5; Calb FLC: -6.8; A1 inh: 0.5; rRNA inh HTS OD600: -17.0; rRNA inh HTS RFP: -11.1

Results for O=S1(=O)C=CC(N2CCOCC2)C1 (stereo unspecified) ?
Beta cell apopt: -2.7; Vif A3G: -2.5%; RanGTP-Impb inh: -0.5; T cruzi inh: -10.8; Calb FLC: 8.5; A1 inh: -0.1

What do the screens show for `O=C1c2cccnc2Oc2ccc(Cl)cc2N1Cc1ccc(F)cc1`?
Beta cell apopt: -0.3; RanGTP-Impb inh: 4.3; T cruzi inh: -33.8; Calb FLC: -0.7; A1 inh: 0.8

Results for Cc1ccccc1C(=O)NNC(=O)c1ccc(Br)cc1 ?
Beta cell apopt: -6.0; rRNA inh HTS: 4.6; AF4-AF9 inh: 0.2; RanGTP-Impb inh: -1.9; T cruzi inh: -16.7; Calb FLC: -0.9; A1 inh: -0.8; rRNA inh HTS OD600: 3.1; rRNA inh HTS RFP: -2.0

What do the screens show for `COc1cccc2c1OC1(C)CC2NC(=O)N1c1cccc(C(=O)N2CCN(c3ccccn3)CC2)c1` (stereo unspecified)?
Beta cell apopt: -5.4; Vif A3G: 12.8%; RanGTP-Impb inh: -2.5; T cruzi inh: -2.0; Calb FLC: -2.4; A1 inh: 0.2
